Vaccinia mCherry = qHTS for Stage-Specific Inhibitors of Vaccinia Orthopoxvirus: mCherry Reporter Primary qHTS | Vaccinia virus mCherry reporter infection, fluorescence; about a quarter of the inactives have no number | Potency, µM (doses to about 36.5 µM), for inactives: at the top dose activity change, negative = inhibition, actives largely listed as inhibitors | actives 0.63% (n = 310,000) | AID 720579, 2013; active = well fitted inhibition curve with a large enough effect; inconclusive = small, poorly fitted or top-dose-only effect; inactive = no such curve, though single readings can be large or run the other way; tested in A549 cells; further: nearly all actives have a fitted effect of over 35% in size; inactives centre near -10
Vaccinia Venus = qHTS for Stage-Specific Inhibitors of Vaccinia Orthopoxvirus: Venus Reporter Primary qHTS | Vaccinia virus Venus reporter expression, fluorescence | AID 720580, 2013 | actives 0.46% (n = 330,000) | Potency, µM (titrated, usually from 36.5 µM), for inactives: top-dose activity change, negative = inhibition, actives largely listed as inhibitors; active means well fitted inhibition curve with a large enough effect; inconclusive means small, poorly fitted or top-dose-only effect; inactive means no such curve, though single readings can be large or run the other way; tested in A549 cells; further: nearly all actives have a fitted effect of over 30% in size; inactives centre near -10
The depositor's hits bear a star; i = inactive; u = inconclusive; x = no result given; & = joins results of further samples; [ ] = dose if it differs, or a comment. On the % scale 0 is the no-effect control and ±100 the full control effect; potency means the concentration at half of the fitted maximal effect.

SMILES	Vaccinia mCherry	Vaccinia Venus
CCOc1ccc(-n2c(=O)c3c4c(sc3n(CC(=O)NC(C)CC)c2=O)CCC4)cc1 (stereo not given)	-6%	-7%
COC(=O)C1=C(C)NC(=O)/C1=C\N(C)C	-2%	-6%
CCOC(=O)[C@]12CCCC=C1N(Cc1ccccc1)C(=O)[C@H](CC(=O)NCCCOC)C2	-13%	3%
CCCn1c2ccccc2c2cnn(CC(=O)Nc3ccccc3OC)c(=O)c21	-19%	-16%
Cc1ccc(-c2cn3cc(C)ccc3n2)cc1	u	-22%
COc1ccc(OC)c(CN(CCN2CCOCC2)C(=O)Nc2ccccc2)c1	i	-8%
CCn1cc(S(=O)(=O)Nc2cc(C(=O)OC)ccc2C)cn1	-23%	-20%
CC(C)(c1cc(Cl)c(O)c(CN2CCOCC2)c1)c1cc(Cl)c(O)c(CN2CCOCC2)c1	-20%	4%
Cc1cc(C(F)(F)F)n2ncc(C(=O)O)c2n1	-13%	-18%
CC(C)n1c(Oc2ccc(F)cc2)nc2c1c(=O)n(C)c(=O)n2C	-10%	-1%
Cc1ccc(Oc2ccc(OCC(=O)NC(C)C(=O)O)cc2)cc1 (stereo not given)	0%	-9%
COc1cc(OC)cc(C(=O)Nc2cccc3nc(C)ccc23)c1	i	-8%
CCNC(=O)CON=C1c2ccccc2-c2ccccc21	-11%	-14%
CCOC(=O)c1c(NC(=O)CSc2nc3ccccc3s2)sc(C(C)=O)c1C	i	-11%
CNC(=O)C(=O)NCCC1CCCCN1S(=O)(=O)c1cccs1 (stereo not given)	-9%	-11%
CN1CCN(CCCNC(=O)c2ccc(CSCc3cccc(Cl)c3)o2)CC1	x	-26%
Cc1ccc(C(=O)NNC(=O)c2ccoc2C)s1	i	-10%
COc1ccc(OC)c(NC(=O)C(C)n2c(=O)cc(C)c3c(C)nn(-c4ccccc4)c32)c1 (stereo not given)	-7%	5%
COC(=O)c1sccc1NC(=O)CC1C(=O)NCCN1C(=O)c1ccc(N(C)C)cc1 (stereo not given)	-24%	-14%
CCC(CN(C)C)Oc1cc(NCc2ccccc2)c2ncn(C(C)C)c2c1 (stereo not given)	u	-14%
O=c1ccc(-c2ccc([N+](=O)[O-])cc2)nn1-c1ccccc1	i	3%
CC1CC(=O)Nc2ccccc2N1C(=O)CSc1nnnn1C (stereo not given)	-14%	-13%
Cc1cc(NN)nc(Cc2ccccc2)n1	-5%	2%
COc1cc2c(cc1OC)n(CC(=O)Nc1ccc(C)cc1C)c(=O)n1nc(-c3ccccc3)nc21	6%	-1%
COc1ccc(OC)c2sc(N(CCCN(C)C)C(=O)c3ccco3)nc12	-3%	-8%

Gathered by group, the compounds so far containing a Cl atom.
SMILES	Vaccinia mCherry	Vaccinia Venus
CC(C)(c1cc(Cl)c(O)c(CN2CCOCC2)c1)c1cc(Cl)c(O)c(CN2CCOCC2)c1	-20%	4%
CN1CCN(CCCNC(=O)c2ccc(CSCc3cccc(Cl)c3)o2)CC1	x	-26%

Returning to the listing, starting two compounds before the break.
SMILES	Vaccinia mCherry	Vaccinia Venus
COc1cc2c(cc1OC)n(CC(=O)Nc1ccc(C)cc1C)c(=O)n1nc(-c3ccccc3)nc21	6%	-1%
COc1ccc(OC)c2sc(N(CCCN(C)C)C(=O)c3ccco3)nc12	-3%	-8%
C/C=C/c1ccc(OC)cc1	-4%	-9%
CCC(=O)N1CCc2cc(Br)cc(S(=O)(=O)N3CCC(C(=O)Nc4ccccc4CC)CC3)c21	-11%	-16%
c1ccc(C2C/C(=N\N3CCOCC3)c3ccccc3O2)cc1 (stereo not given)	-9%	-2%
Cn1c(/C=N/Nc2nc3ccccc3[nH]2)nc2ccccc21	u	-11%
O=C(Cn1nc(Cc2ccncc2)c2ccccc2c1=O)Nc1cccc(C(F)(F)F)c1	-22%	-13%
CCOc1ccc(N=C2C(=O)Nc3ccc(C)c(Br)c32)cc1	u	-4%
Cc1ccc(Cl)cc1NC(=O)Cn1nnc2sc3c(c2c1=O)CCC(C(C)(C)C)C3 (stereo not given)	9%	-2%
Cc1cc2c3c(c1)C(C)CC(C)(C)N3C(=O)C2=C(C#N)C#N (stereo not given)	i[7.34 µM]	-5%[7.34 µM]
CCN(CC)CCNC(=O)c1ccc(Cn2c(SCc3ccccc3)nc3cccnc32)cc1	-13%	-6%
COc1cccc(-c2nc(S(=O)(=O)c3ccc(C)cc3)c(N3CCCCCC3)o2)c1	-12%	-10%
CC1=C(O)C(=O)C=C2C1=CC=C1C2(C)CCC2(C)C3CC(C)(C(=O)O)CCC3(C)CCC12C (stereo not given)	22µM*	10µM*
CCOc1cccc(C(=O)Nc2cccc(-c3nc4ncccc4o3)c2C)c1	-20%	-12%
O=C(CSc1n[nH]c(=O)n1-c1ccccc1)N1CCOCC1	-15%	-17%
Cc1nccn1CC(O)COc1ccccc1 (stereo not given)	x	-6%
Cc1cc(-c2n[nH]c(=S)n2/N=C/c2cccs2)n[nH]1	i	1%
CC(C(=O)NC1=NCCS1)N1C(=O)C2CC=CCC2C1=O (stereo not given)	-5%	-2%
CCc1onc(C)c1C(=O)O	-17%	-9%
CSc1nsc(NN)n1	-6%	-7%
CC(=O)c1cccc(NC2c3ccccc3C(=O)N2Cc2ccc3c(c2)OCO3)c1 (stereo not given)	i	2%
COC(=O)C1=C(c2ccc(-c3ccccc3)c(F)c2)C[C@@H]2CC[C@H]1N2C(=O)NC1Cc2ccccc2C1	u	u
COCCCNCC1C(Oc2ccc(Cl)cc2)C(=O)N1c1ccccc1C (stereo not given)	-6%	-13%
Nc1ccc(S(=O)(=O)Nc2nccc(/C=C/c3ccc(Cl)cc3)n2)cc1	-15%	-3%
CC(=O)N1CCN(c2ccc(NCc3ccc(C(C)C)cc3)cc2)CC1	u	u
COc1ccc(CCNC(=O)CCc2c(C)nc3cc(-c4ccccc4OC)nn3c2C)c(OC)c1	-25%	-21%
O=C(CNC(=O)c1cccc(OC(F)F)c1)OCn1nnc2ccccc2c1=O	-1%	-19%

Molecules shown so far containing a CF3 group, in the order listed:
SMILES	Vaccinia mCherry	Vaccinia Venus
Cc1cc(C(F)(F)F)n2ncc(C(=O)O)c2n1	-13%	-18%
O=C(Cn1nc(Cc2ccncc2)c2ccccc2c1=O)Nc1cccc(C(F)(F)F)c1	-22%	-13%

Remaining list, next part.
SMILES	Vaccinia mCherry	Vaccinia Venus
COc1ccc(OC)c(NC(=O)c2c(NC(=O)CCC(=O)O)sc3c2CCCCC3)c1	-22%	-7%
O=C(Nc1ccccc1Br)c1cnn2c1NC(=C1CC1)C=C2C(F)F	-5%	-21%
O=C(N/N=C/c1ccc2c(c1)OCO2)c1ccc(COCC(F)(F)C(F)F)cc1	-5%	-29%
Cc1ccc(N(C)S(=O)(=O)c2cccc(C(=O)OCC(=O)c3c(N)n(C)c(=O)n(C)c3=O)c2)cc1	2%	4%
COc1cc2c(cc1OC)-c1nnc(C)n1C1(CCCC1)C2	-1%	-7%
O=C(NCCc1ccccc1)c1ccc2nccnc2c1	i	-2%
OC(CN1CCOCC1)CN1CCOCC1	i	5%&-10%
CC(=O)c1cc2c(cc1NC(=O)C1CC1)OCO2	x	-16%
Oc1c(C(c2ccc(Cl)cc2)N2CCCC2)sc2nc(-c3ccco3)nn12 (stereo not given)	-10%	-4%
CC1(C)Oc2ccc3ccc(=O)oc3c2-c2cnoc21	i	-6%
COc1cccc(NC(=O)CN2C(=O)NC(Cc3c[nH]c4ccccc34)C2=O)c1 (stereo not given)	-14%	-17%
COc1ccc(C2c3cc(OC)c(OC)cc3CC(=O)N2c2ccc(C)c(F)c2)cc1 (stereo not given)	-24%	-16%
CC(C)C[C@@]12C(=O)N(c3cccc(F)c3)C(=O)N1[C@H](c1ccc(Cl)cc1)[C@@H]1C(=O)N(C3CCCCC3)C(=O)[C@@H]12	1%	-15%
Cc1ccc(C)c(S(=O)(=O)N2CCN(C(=O)c3cncc(Br)c3)CC2)c1	-18%	-12%
CC1(C(=O)NS(=O)(=O)C2CC2)CCN(C(=O)C2(c3ccc(Cl)cc3)CCCC2)C1 (stereo not given)	7%	10%
COC(=O)C1CSC(c2ccc(Cl)cc2)N1C(=O)c1ccccc1 (stereo not given)	-24%	-25%
COC(=O)c1cccc(NC(=S)Nc2cc(Cl)ccc2OC)c1	2%	-4%
Cc1ccc(C)c(S(=O)(=O)Nc2ccc(C(=O)NCC(c3ccco3)N(C)C)cc2)c1 (stereo not given)	-1%	-9%
Cc1ccc(O)c(NC(=O)C2=CC(c3ccco3)=NS(=O)(=O)N2C)c1	-6%	-9%
c1ccc(C(c2nnnn2C2CCCC2)N2CCN(c3nc4ccccc4s3)CC2)cc1 (stereo not given)	3%	7%
CCC1C/C(=C\c2cccnc2)C(=O)/C(=C/c2cccnc2)C1 (stereo not given)	u	u
Cc1cccc(NS(=O)(=O)c2cc(C(=O)NCCC3=CCCCC3)ccc2Cl)c1	u	u
CCC(C)C(Nc1ccc(C(=O)OC)cc1[N+](=O)[O-])C(=O)OC (stereo not given)	i	-3%
CCN(CC)CCN(C)C(=O)c1ccc(OC2CCN(C(=O)C3CC3)CC2)cc1	i	-10%
Cc1cccc(C(=O)NNc2ncnc3c2cnn3-c2ccc(C)cc2C)c1	-17%	-12%

Of the compounds above, these contain a furan ring, fused or not.
SMILES	Vaccinia mCherry	Vaccinia Venus
CN1CCN(CCCNC(=O)c2ccc(CSCc3cccc(Cl)c3)o2)CC1	x	-26%
Cc1ccc(C(=O)NNC(=O)c2ccoc2C)s1	i	-10%
COc1ccc(OC)c2sc(N(CCCN(C)C)C(=O)c3ccco3)nc12	-3%	-8%
Oc1c(C(c2ccc(Cl)cc2)N2CCCC2)sc2nc(-c3ccco3)nn12 (stereo not given)	-10%	-4%
Cc1ccc(C)c(S(=O)(=O)Nc2ccc(C(=O)NCC(c3ccco3)N(C)C)cc2)c1 (stereo not given)	-1%	-9%
Cc1ccc(O)c(NC(=O)C2=CC(c3ccco3)=NS(=O)(=O)N2C)c1	-6%	-9%

Next section
SMILES	Vaccinia mCherry	Vaccinia Venus
O=Cc1cc(N=Nc2ccc(S(=O)(=O)O)cc2)ccc1O	i	-15%
Oc1ccc(/C=N/N=C/c2ccc(O)cc2)cc1	i	-8%
CC(=O)NC(Cc1cc(C)ccc1C)C(=O)N1CCN(C(=O)c2ccc(Br)cc2)CC1 (stereo not given)	i	-3%
COc1cccc(-c2csc(N3CCN(C(=S)Nc4cccc(C)c4)CC3)n2)c1	-23%	-20%
COC(=O)C1=C(C)NC(=O)C1(NC(=O)c1ccccc1C)C(F)(F)F (stereo not given)	-13%	-2%
COC(=O)Cc1ccc(NC(=S)NCCC(C)C)cc1	-11%	-4%
COc1cc(NC(=O)CN(C)S(=O)(=O)c2ccc3[nH]c4c(c3c2)CCCC4)cc(OC)c1OC	-23%	-13%
CCc1nc2cc(C(=O)N(C)C3CCOC3)cc(NC(=O)c3ccccc3OC)c2n1C (stereo not given)	-19%	-16%
CCSC(C)CC1C/C(=N/O)c2c(CC)noc2C1 (stereo not given)	-20%	-7%
Cc1c(C(c2ccc(Br)cc2)c2c(O)c3ccccc3oc2=O)c(=O)n(-c2ccccc2)n1C (stereo not given)	-13%	-9%
COc1ccc2c(c1)Sc1ccccc1N2CCN(C)C	x	u
CCOC(=O)c1c(S(=O)(=O)N2CCCC(C(=O)N3CCN(c4ccccc4)CC3)C2)c(C)n(C)c1C (stereo not given)	-13%	-15%
O=C(O)CC(SCC(=O)NC1CCCc2ccccc21)C(=O)O (stereo not given)	-14%	-7%
CCSc1nc(C2CC2)cc(-c2ccco2)c1C#N	x	-22%
Cc1ccc(-c2nc(NC(=O)CSc3nnc4scc(-c5ccccc5)n34)ns2)cc1	-28%	-17%
Cc1ccc(C(=O)Nc2ccc(Cl)cc2C(F)(F)F)c(Cl)c1	i	-13%
CCOC(=O)C1(CCc2ccccc2)CCN(Cc2ccc(OC)cc2)CC1	i	1%
CC(Cc1cccnc1)NC(=O)c1cc(COc2ccc(F)cc2Cl)on1 (stereo not given)	-17%	-29%
CC1(C)C2CCC1(CS(=O)(=O)N1CCC(C(N)=O)CC1)C(=O)C2 (stereo not given)	i	-5%
CSc1nnc(SCC#N)s1	-18%	-5%
CSc1ccccc1-c1nnc(-c2ccc(Cl)cc2)o1	x	3%
COC(=O)Cc1[nH]nc2c1C(c1c[nH]c3ccccc13)C(C#N)=C(N)O2 (stereo not given)	-15%	-13%
C[C@@H](C(=O)Nc1ccccc1N1CCOCC1)N1C(=O)C2CCCCC2C1=O (stereo not given in full)	-1%	-17%
CCCN(Cc1ccccc1)C(=O)Nc1ccc2c(c1)nnn2C	-6%	4%
CCc1cccc(NC(=O)c2ccc3c(=O)n4nc(Nc5ccccc5OC)sc4nc3c2)c1	4µM*	4µM*
CN(C(=O)CCN1C(=O)/C(=C/c2ccc(F)cc2)SC1=S)C1CCS(=O)(=O)C1 (stereo not given)	u	11µM*
Cn1cnc(S(=O)(=O)Nc2ccc(OC(F)F)cc2)c1	-17%	-12%
